# Compound activity deposited in PubChem by National Center for Advancing Translational Sciences (NCATS).
# TRPML1 inh: human mucolipin-1 channel inhibition; activity change, negative = inhibition, % (test concentration not listed); TRPML1-inducible cells, Ca2+ dye fluorescence, FDSS; active compounds read low; inhibition of EC80 agonist-evoked calcium signal; Q9GZU1; hit rate 0.02% among 390,000; in the data active means activity change below about -50%; inconclusive means about -30% to -50%; inactive means above about -30%;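 also: stimulus is agonist 54-4 at its EC80 concentration; % is scaled to controls: 0 for no effect and ±100 for the full control effect; compound concentration not given in the record; the text of the record puts the active cut at -80%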
#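 Tet-induced TRPML1-DL cells loaded with Ca8 no-wash calcium dye were read kinetically on FDSS. Compound addition was followed by EC80 agonist 54-4 (4 uM final); inhibition was read over 110 s.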
# CtBP-E1A blk: blocks the CtBP interaction with E1A. activity change, % (no concentration beside the values). hit rate 0.49% among 340,000. AlphaScreen GST-E1A/His-CtBP binding, 1536-well; active compounds read low; control for the full effect not named in the record; in the data active means activity change below about -65%; inconclusive means about -30% to -65%; inactive means above about -30%; also: % is scaled to controls: 0 for no effect and ±100 for the full control effect
#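 In 5 uL wells, 23 nL compound meets equimolar GST-E1A and His-CtBP (5X stock 125 nM each) for 2 h, 37 °C. Beads (5X, 50 ug/mL) then 1 h, 37 °C, dark.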
# D2 potentiator: human D2 receptor positive allosteric modulation; P14416; DiscoveRx D2 beta-arrestin cells, luminescence, 90 min; 100% = 57 uM dopamine signal; potentiation, % (test concentration not listed); hit rate 0.23% among 360,000; AID 624464; active = potentiation of 50% or more; inconclusive = 30% to 50%; inactive = 30% or less;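 also: compound concentration not given in the record; tested on top of an EC20 dose of dopamine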
#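 PathHunter beta-arrestin assay in DiscoveRx D2 cells. Compounds were added with an EC20 of dopamine (50 nM final) for 90 min at 37 deg C. Luminescence was read 1 h after detection reagent, with 57 uM dopamine as the EC100 control.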
# TRPML1 agonist: activates the human TRPML1 channel. Q9GZU1. TRPML1-expressing cells, Ca2+ dye fluorescence, FDSS; host cell line not named in the record; reference of the full effect not given here. activation, % (concentration not given with the values). hit rate 0.12% among 410,000; in the data active = activation above about 50%; inconclusive = about 30% to 50%; inactive = below about 30%; also: 0% is about no effect; the text of the record puts the active cut at 80%
#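 Tetracycline-induced TRPML1-DL cells are seeded and incubated overnight before loading with a no-wash Ca2+ dye and quencher. Agonist activity is taken from the 110 s fluorescence read following compound pin-transfer on an FDSS, before EC80 54-4 challenge.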
# TRPV1 PAM: potentiators of human vanilloid receptor 1 (TRPV1) | TRPV1-expressing cells, Fluo-8 calcium influx, capsaicin EC20 potentiation; host cell line not named in the record; control for the full effect not named in the record | AID 540277 | potentiation, % at 8.33 µM | hit rate 0.02% among 320,000; active means potentiation above 80%; inconclusive means 30% to 80%; inactive means below 30%; also: 0% is about no effect
#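 TRPV1-expressing cells were cultured overnight at 35.5C and loaded with Fluo-8 calcium dye for 40 to 90 min at room temperature. After a 10 s baseline, compound was added and calcium influx was read kinetically for 3 min (ex 480/em 520 nm).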
# Six1-Eya2 inh: blocks human Six1 binding to Eya2; Q15475+O00167; AlphaScreen GST-Six1/His-Eya2 binding, biochemical; active compounds read low; control for the full effect not named in the record; activity change, % (no concentration beside the values); hit rate 0.56% among 360,000; AID 651725; in the data active = activity change below about -65%; inconclusive = about -30% to -65%; inactive = above about -30%; also: % is scaled to controls: 0 for no effect and ±100 for the full control effect
# Target sequence (O00167 whole entry, looked up): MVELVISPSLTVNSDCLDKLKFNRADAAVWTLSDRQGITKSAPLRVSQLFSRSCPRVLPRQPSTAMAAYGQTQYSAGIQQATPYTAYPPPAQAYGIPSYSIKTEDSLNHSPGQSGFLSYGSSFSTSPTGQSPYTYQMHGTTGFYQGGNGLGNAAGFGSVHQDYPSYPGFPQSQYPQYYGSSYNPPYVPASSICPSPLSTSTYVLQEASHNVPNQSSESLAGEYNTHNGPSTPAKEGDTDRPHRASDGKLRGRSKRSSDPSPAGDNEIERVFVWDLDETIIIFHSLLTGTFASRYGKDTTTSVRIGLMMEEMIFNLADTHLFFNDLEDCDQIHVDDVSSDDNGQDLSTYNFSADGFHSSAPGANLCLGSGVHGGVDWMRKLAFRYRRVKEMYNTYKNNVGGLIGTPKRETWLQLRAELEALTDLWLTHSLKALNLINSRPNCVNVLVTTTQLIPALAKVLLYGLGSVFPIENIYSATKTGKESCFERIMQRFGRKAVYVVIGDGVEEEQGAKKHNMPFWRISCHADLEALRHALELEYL
# Target sequence (Q15475 whole entry, looked up): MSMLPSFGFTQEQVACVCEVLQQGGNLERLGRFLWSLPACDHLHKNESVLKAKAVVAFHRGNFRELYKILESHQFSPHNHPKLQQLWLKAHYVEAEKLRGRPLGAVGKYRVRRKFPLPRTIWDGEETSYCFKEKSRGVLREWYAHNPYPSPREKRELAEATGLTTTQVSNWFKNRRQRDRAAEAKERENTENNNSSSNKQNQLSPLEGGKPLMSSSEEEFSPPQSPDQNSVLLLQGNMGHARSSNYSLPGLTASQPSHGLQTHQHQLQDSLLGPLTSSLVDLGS
#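 Six1/Eya2 binding was read as AlphaScreen signal after compounds were pinned into GST-Six1 plus His-tagged Eya2 (5X stock 250/500 nM) in pH 8.0 Tris/NaCl/TCEP buffer, beads added, then incubated 1 h, 37 C, dark.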
# An asterisk follows results filed as active; ? = inconclusive; · = not tested or not shown. Rows are unselected; overall some 0.95% were active at least once.
# Start of the data: the first 2 entries, ahead of the listing:
SMILES,TRPML1 inh,CtBP-E1A blk,D2 potentiator,TRPML1 agonist,TRPV1 PAM,Six1-Eya2 inh
COc1ccccc1OCC(=O)c1[nH]c(C)c(C(C)=O)c1C,-4,-8,3,-0.4,7,-9
N/C(=N\OC(=O)CCc1ccccc1)c1ccc(Cl)cc1,-14,68,-9,2.0,-6,83

# All compounds of this part, previewed entries included:
SMILES,TRPML1 inh,CtBP-E1A blk,D2 potentiator,TRPML1 agonist,TRPV1 PAM,Six1-Eya2 inh
COc1ccccc1OCC(=O)c1[nH]c(C)c(C(C)=O)c1C,-4,-8,3,-0.4,7,-9
N/C(=N\OC(=O)CCc1ccccc1)c1ccc(Cl)cc1,-14,68,-9,2.0,-6,83
Cn1c(/C(C#N)=C/c2ccc(-c3ccc(S(N)(=O)=O)cc3)o2)nc2ccccc21,-4,-18,4,4.2,2,34
CCCCCCn1c(CN2CCN(Cc3ccccc3)CC2)nc2c1c(=O)n(C)c(=O)n2C,15,-11,-21,-0.7,2,0
Cn1cnnc1SCC(=O)NCc1ccccc1,4,0,-3,0.2,22,-2
O=C(Nc1cccnc1)/C(N=Nc1c(Cl)cccc1Cl)=C(\O)c1ccccc1,53,-2,-32,2.9,-1,-4
O=C1C2(CCC13COC(c1ccc(O)cc1)OC3)COC(c1ccc(O)cc1)OC2 (centres undefined),1,5,6,0.1,-2,-1
Cc1cc(C)c2cc(C#N)c(NCCCNC(=O)c3ccncc3)nc2c1,-3,4,3,-0.6,·,1
CN(C)C(=O)CCc1ccc2c3c([nH]c2c1)[C@]1(C)[C@@H](C(=O)N2CCCCC2)C[C@H](CC(=O)NCc2ccco2)C(=O)N1CC3,21,0,1,2.5,·,7
COc1ccc(OCc2nnc(SCC(=O)NC3CC4CCC3C4)o2)cc1 (centres undefined),-5,-5,2,1.1,1,14
CC1=C(C(N)=O)C(c2ccccc2)n2nc(-c3cccs3)nc2N1 (centres undefined),-7,0,-3,0.6,-9,6
S=C(NCc1ccco1)N/N=C/c1ccc(Cl)cc1,-16,-9,19,6.0,5,-11
O=C(CSc1nc2ccccc2c(=O)n1CCCN1CCOCC1)NC12CC3CC(CC(C3)C1)C2,34,·,-16,-0.4,-28,0
COc1ccc(Br)cc1S(=O)(=O)NCCN1CCOCC1,25,4,-3,0.5,4,5
CCOC(=O)C1=C(C)N=C2SC(C)C(=O)N2C1c1ccc(C(=O)OC)cc1 (centres undefined),7,2,1,-0.4,-7,-10
O=c1cc(CO)oc(CN2CCN(CCO)CC2)c1O,-6,-2,-8,0.1,-6,-5
COc1ccc(CNS(=O)(=O)CCNC(=O)c2ccc(OC)cc2)cc1,3,5,0,-0.5,-8,2
O=c1[nH]oc(O)c1-c1ncc(C(F)(F)F)cc1Cl,-1,-4,-3,-0.1,6,2
CN(C(=O)CSc1nnc(COc2ccccc2F)n1N)C1CCCCC1,-15,1,-1,0.6,-3,3
CCOC(=O)C(C)Oc1cccc2c(=O)n(CC(=O)NCCc3ccccc3)ccc12 (centres undefined),·,-4,-6,·,1,0
CCOC(=O)C1=CCN(S(=O)(=O)c2ccc(Br)cc2)C1c1cccc(C)c1 (centres undefined),·,-21,-7,1.8,·,14
CC1(c2ccc3c(c2)OCCO3)NC(=O)N(CC(=O)Nc2ccccc2F)C1=O (centres undefined),2,-23,-8,0.2,2,13
COc1ccc(S(=O)(=O)Nc2cc(OC)c(NC(=O)c3ccco3)cc2OC)cc1,-14,0,-3,0.1,-9,-3
N#Cc1ccccc1Cn1c(=O)n(-c2ccc(CC(=O)NCc3ccco3)cc2)c(=O)c2sccc21,11,-2,-6,-0.1,10,1
O=C(NCCN1C(=O)C2C3C=CC(C3)C2C1=O)Nc1ccccc1 (centres undefined),-6,-4,-4,0.3,29,17
SMILES,TRPML1 inh,CtBP-E1A blk,D2 potentiator,TRPML1 agonist,TRPV1 PAM,Six1-Eya2 inh
CCn1c(=O)n(CC)c2cc(N3CCCC3)c(NC(=O)c3cccc(Cl)c3)cc21,15,-20,-5,2.5,-21,-14
Cc1cccc(CC2SC(N)=NC2=O)c1 (centres undefined),20,7,-1,-0.8,?,4
COCC(=O)Nc1nnc(COc2ccccc2)s1,1,-2,13,0.5,6,4
CC(C)c1ccc(NC2=CC(=O)CC(C)(C)C2)cc1,-11,-20,-17,0.8,-19,-4
COCCN(C(=O)COC(=O)CCOc1ccccc1)c1c(N)n(Cc2ccccc2)c(=O)[nH]c1=O,-6,-7,-20,0.4,-12,3
O=C(CN1C(=O)NC2(CCCC2)C1=O)OCc1ccc(Cl)cc1Cl,23,1,8,-0.9,-4,-8
Cc1cccc(C)c1NC(=O)C1CCCN(CCCc2ccccc2)C1 (centres undefined),-8,2,-29,-1.0,-2,0
CCS(=O)(=O)N1CCC(C(=O)N2CCc3ccccc3C2)CC1,-10,10,-4,-0.2,11,13
CCOc1ccc(NC(=O)N[C@@H](Cc2ccccc2)C(=O)O)cc1,-16,0,-8,-0.2,-8,8
O=C(CCS(=O)(=O)c1ccc(Br)s1)NCc1cccs1,0,-4,-15,-0.9,?,2
CCCCCNC(=O)Cc1ccc(S(=O)(=O)N2CCOCC2)s1,23,-1,-7,-0.5,9,-1
CC(=O)Nc1ccc(NC(=O)CCCCCN2C(=O)c3ccccc3C2=O)cc1,7,2,8,-0.5,-2,-5
O=C(NC(=S)Nc1ccc(-c2ccccc2)cc1)c1ccccc1,-9,-3,-16,0.8,·,-11
COc1ccccc1CN(C(=O)c1cnccn1)C(C(=O)NC1CCCCC1)c1cc(OC)c(OC)c(OC)c1 (centres undefined),44,0,-6,0.7,5,2
CC(C)c1ccccc1NC(=S)NC1CCN(Cc2ccccc2)CC1,4,-12,-14,4.9,-15,-3
CC(C)CNC(=O)CN(C1CCCCC1)S(=O)(=O)c1ccccc1,8,2,-2,-1.1,-16,9
COc1ccccc1CNS(=O)(=O)c1c(C)[nH]c(C)c1C(=O)N1CCCC1,2,0,-8,2.5,6,0
Cc1nc(SCC(=O)N2CCCCCC2)c2c(=O)n(C)c(=O)n(CC(C)C)c2n1,8,6,-7,0.5,·,6
CCCCOc1ccc(C(=O)NCc2ccccn2)cc1,0,2,-16,0.2,-12,-6
CC(C)C1Nc2ccc(C(=O)NCCCN3CCOCC3)cc2NC1=O (centres undefined),14,6,-14,-0.6,24,8
O=C(CSc1nc2ccsc2c(=O)n1CC1CCC(C(=O)O)CC1)c1ccc(F)cc1 (centres undefined),2,4,-4,-0.8,10,-5
Cc1ccc(C2NC(=O)NC(O)(C(F)(F)F)C2C(=O)c2ccccc2)o1 (centres undefined),-6,-11,-8,-0.4,?,-4
CC12CCC(=O)N1C(C(=O)Nc1ccc(F)c(F)c1F)CS2 (centres undefined),-22,7,0,1.0,9,4
Cc1ccc2c(c1)c(N=Nc1ccc([N+](=O)[O-])cc1)c(O)n2C,-2,0,-6,-1.3,15,0
Cc1ccc(NC(=S)/N=C(\N)Nc2nc(C)c3cc(C)ccc3n2)c(C)c1,18,-17,-13,3.4,6,-18

# Compound profiles (already shown). Order of values: TRPML1 inh, CtBP-E1A blk, D2 potentiator, TRPML1 agonist, TRPV1 PAM, Six1-Eya2 inh
# Entry for CC(C)CNC(=O)CN(C1CCCCC1)S(=O)(=O)c1ccccc1 : 8, 2, -2, -1.1, -16, 9
# Entry for CCn1c(=O)n(CC)c2cc(N3CCCC3)c(NC(=O)c3cccc(Cl)c3)cc21 : 15, -20, -5, 2.5, -21, -14
# Entry for CCOc1ccc(NC(=O)N[C@@H](Cc2ccccc2)C(=O)O)cc1 : -16, 0, -8, -0.2, -8, 8
# Entry for CC(C)c1ccccc1NC(=S)NC1CCN(Cc2ccccc2)CC1 : 4, -12, -14, 4.9, -15, -3
# Entry for COCCN(C(=O)COC(=O)CCOc1ccccc1)c1c(N)n(Cc2ccccc2)c(=O)[nH]c1=O : -6, -7, -20, 0.4, -12, 3

# Next compounds follow:
SMILES,TRPML1 inh,CtBP-E1A blk,D2 potentiator,TRPML1 agonist,TRPV1 PAM,Six1-Eya2 inh
Nn1c(SCC(=O)Nc2cccc(C(F)(F)F)c2)nncc1=O,-3,-14,9,-0.6,4,-13
Cc1cc(NC(=O)COc2ccc(F)c(Cl)c2)no1,20,0,-34,-0.2,10,-12
CC(=O)c1cn(C)c(=O)c2ccccc12,-6,·,6,1.8,6,2
CC(C)c1nc(SCC(=O)Nc2ccc3c(c2)OCCO3)c2c(=O)n(C)c(=O)n(C)c2n1,-2,3,-5,0.0,·,2
COc1cc(C(=O)NCc2cc3ccccc3n2C)cc(OC)c1OC,-8,-3,0,2.1,?,-4
COc1ccc(OCC(=O)NNC(=O)c2cccc(S(=O)(=O)N(C)C)c2)cc1,19,-5,-4,1.4,?,2
O=C(OCc1ccc([N+](=O)[O-])cc1)c1cc([N+](=O)[O-])ccc1N1CCOCC1,-6,0,-16,-0.4,-8,-17
COc1ccc2c(c1)c1ncn(CCc3ccccc3)c(=O)c1n2C,-5,-16,-15,0.3,-18,-8
CSCC[C@H](NC(=O)COc1ccc(Cl)cc1)c1nc2ccccc2[nH]1,-19,22,-8,1.6,-21,8
Cc1c(NC(=O)CSc2ccccn2)c(=O)n(-c2ccccc2)n1C,-15,-2,-7,-0.6,4,8
COc1cc(/C=C2\SC(N)=NC2=O)cc(Cl)c1O,·,·,-40,·,9,0
CCS(=O)(=O)N1CCC(C(=O)c2ccc(Cl)cc2)CC1,-17,-15,-4,0.4,-2,4
CC(=O)Cc1nsc(NC(=O)c2ccc(-c3cccc(C(F)(F)F)c3)o2)n1,-2,0,-7,-1.1,-10,3
COc1ccc(NC(=O)C(=O)N/N=C/c2cccnc2)c(OC)c1,9,-2,-21,-0.6,-2,0
Cc1cccc(NC(=O)Nc2ccc(C)cc2Br)c1,7,6,-12,1.8,23,0
O=C(c1cc2ccccc2oc1=O)N1CCCN(C(=O)c2cc3ccccc3oc2=O)CC1,3,1,-2,-0.7,·,1
Cc1ccccc1C(=O)NC(CC(C)C)C(=O)OCc1cc(=O)n2cc(Br)ccc2n1 (centres undefined),-8,-5,3,1.7,3,-4
COc1ccc2c(c1)C(=O)[C@H](O)[C@@H](c1ccc(OC)c(Br)c1)O2,-1,1,-18,4.2,-3,5
NC(=O)c1ccc(NC(=O)CSc2nnc(C3CCCCC3)n2N)cc1,28,-1,-9,0.0,10,2
CC1(c2ccc3c(c2)OCCCO3)NC(=O)N(CC(=O)NCCc2ccccc2)C1=O (centres undefined),25,1,-10,1.2,-10,0
Cc1ccccc1N=Cc1c(O)n(-c2nccs2)c(=O)c2ccccc12,1,-26,-44,0.4,10,-14
O=C(CNC1CCCCC1)Nc1cccc(C(F)(F)F)c1,14,1,-15,0.3,-25,-7
CCN1CCN(c2sc(S(=O)(=O)CC)nc2S(=O)(=O)c2ccc(Cl)cc2)CC1,1,1,-27,-0.1,·,-4
COc1cccc(-c2sc3ccc(OC)cc3c2-c2ccc(OC)cc2F)c1,-1,8,0,0.0,13,1
CN1C(=O)C(C(=O)Nc2ccccc2F)c2ccccc21 (centres undefined),-13,·,-6,0.5,-3,-1
CC(C)CC(=O)NNC(=O)C(C)C,-13,9,-7,-0.1,0,3
COc1ccc(CN2CCNC(=O)C2CC(=O)N(C)Cc2nc(C)cs2)c(OC)c1 (centres undefined),-10,0,-9,1.1,-2,8
O=[N+]([O-])c1ccc2c(c1)nc1n2CCCCC1,2,6,-9,-0.8,-9,12
